Assay outcomes as filed in PubChem.
T cruzi repl: blocks replication of Trypanosoma cruzi; T. cruzi beta-gal in NIH3T3, luminescence, 90 h; inhibition, % (no concentration beside the values); 300,000 tested, 1.4% active; AID 1885;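 active = mean inhibition across valid replicates above about 55%, limit read from the data; inconclusive = mean below that limit but half or more replicates reach it; inactive = mean below it, under half of replicates reach it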;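 note: signal also drops with host cell toxicity which is not excluded here; 0% = plate median of DMSO wells and 100% = zero luminescence signal; higher percent means less beta-gal luminescence so fewer parasites; stock transfer was 50 nL into about 50 µL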
A1 inh: inhibitors of the anti-apoptotic protein A1, read as caspase activation; MEF A1-2A-BIM cells, Caspase-Glo 3/7 luminescence, 3 h; percent of clofoctol response, vehicle zero; caspase activation, % (test concentration not listed); 330,000 tested, 0.066% active; AID 2462;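 active = over half of replicate activation scores above 10%, or exactly half above 10 with the replicate mean above 10; inconclusive = replicate mean below 10 yet half the replicates above 10; inactive = over half of replicates below 10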;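 note: wells of about 30 µL received 50 nL stock; many hits fall short of the cut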
Calb FLC: affects C. albicans growth with fluconazole; C. albicans CaCi-2 (fluconazole-resistant clinical isolate) + fluconazole, Alamar Blue growth, 48 h; growth inhibition, % (concentration not given with the values); 300,000 tested, 0.57% active;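 active = most replicates above 75%; inconclusive = exactly half above 75%; inactive = most below 75%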;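 note: all wells also contain fluconazole at 8 µg/ml as a sub-toxic cotreatment; 0% = median of DMSO wells and 100% = median of geldanamycin control wells; wells of about 8 µL received 7.5 nL stock; the first replicate is given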
B2AR ag: agonists of human beta-2 adrenergic receptor inducing internalization; Am2.2-beta2AR cells, FAP receptor internalization, flow cytometry; reference of the scale not given here; response, % (test concentration not listed); 340,000 tested, 0.43% active;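 active = response above a set limit, near 3 SD of response in nonfluorescent compounds, cut at about 42% in these data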;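 note: stock transfer was 100 nL into about 11 µL; a reference agonist was the positive control; negative values mostly stem from fluorescent compounds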
Target sequence (P07550 whole entry, looked up): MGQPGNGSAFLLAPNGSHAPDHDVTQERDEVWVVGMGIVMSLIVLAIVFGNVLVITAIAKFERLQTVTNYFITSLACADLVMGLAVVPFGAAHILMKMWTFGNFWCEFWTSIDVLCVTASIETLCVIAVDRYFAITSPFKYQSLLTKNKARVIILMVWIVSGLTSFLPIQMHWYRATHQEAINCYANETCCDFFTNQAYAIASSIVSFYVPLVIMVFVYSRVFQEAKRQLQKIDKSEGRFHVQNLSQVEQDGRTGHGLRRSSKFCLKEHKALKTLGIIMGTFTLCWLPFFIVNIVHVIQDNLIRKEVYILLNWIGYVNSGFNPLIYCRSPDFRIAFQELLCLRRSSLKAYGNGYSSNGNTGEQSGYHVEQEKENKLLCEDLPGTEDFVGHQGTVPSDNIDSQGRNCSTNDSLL
LANA-H2A inh: blocks KSHV LANA binding to histone H2A/H2B; Q9QR71; cell-free LANA-H2A/H2B peptide, fluorescence polarization; inhibition, % (no concentration beside the values); 320,000 tested, 0.6% active; AID 2629; in the data active = inhibition mostly above about 10%, no sharp cut-off; inactive = mostly below about 6.7%;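 note: stock transfer was 7.5 nL into about 10 µL; 0% = median of vehicle wells and 100% = median of positive control wells; one replicate is shown; the record names a cut of 25% in any replicate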
Ecoli rRNA inh: inhibitors of bacterial rRNA selective over humanized ribosomes. E. coli WT GFP vs humanized-ribosome RFP mutants, fluorescence, 24 h; active compounds read low; DMSO median 0, no signal -100. GFP signal change (wild-type ribosome), % (no concentration beside the values). 350,000 tested, 1.6% active. AID 720706;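 active = significant combined selectivity score with lowered wild-type GFP, culture density cut under 30%, mutant RFP and density less affected; inactive = any of these conditions unmet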; note: one replicate is shown; some compounds called inactive have numbers as strong as hits
Beta cell apopt: beta cell apoptosis inhibition; protection from apoptosis, % (no concentration beside the values); AID 435005; INS-1E cytokine-induced death, ATP luminescence, 48 h; percent of positive-control rescue, neutral wells zero; 300,000 tested, 0.8% active;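 active = all replicates at 75% or more, or half of them and the mean; inconclusive = half reach 75% but not the mean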;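 note: 0% = cytokine-treated negative control wells and 100% = positive control rescue; higher means more ATP so stronger rescue from cytokine killing; wells of about 40 µL received 100 nL stock; the first replicate is given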
ALR H2O2 inh: blocks human ALR sulfhydryl oxidase activity; P55789; purified ALR, DTT oxidation, H2O2 HRP-luminol luminescence; inhibition, % (concentration not given with the values); 290,000 tested, 3.8% active; AID 485317;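 active = mean and each replicate at 75% or more; inconclusive = only one of the two met; inactive = neither met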;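 note: stock transfer was 7.5 nL into about 7.5 µL; 0% = neutral wells and 100% = wells with inactivated enzyme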
Target sequence (P55789 whole entry, looked up): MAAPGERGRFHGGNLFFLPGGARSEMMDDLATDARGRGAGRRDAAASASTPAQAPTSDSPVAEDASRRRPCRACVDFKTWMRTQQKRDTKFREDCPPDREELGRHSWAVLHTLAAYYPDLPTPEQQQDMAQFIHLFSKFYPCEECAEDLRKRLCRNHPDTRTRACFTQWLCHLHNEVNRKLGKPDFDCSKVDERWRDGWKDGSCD
Ecoli rRNA inh OD600: second read-out of Ecoli rRNA inh, no call of its own (marks repeat the call); OD600 change, %; measured here: OD600 growth;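 optical density of the mix in the first replicate; 0 = DMSO median and -100 = no signal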
Ecoli rRNA inh RFP: second read-out of Ecoli rRNA inh, no call of its own (marks repeat the call); RFP signal change, %; measured here: RFP humanized mutant strains;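 first replicate; 0 = DMSO median and -100 = no signal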
* = called active by the depositor; ? = inconclusive; . = no result given; & = joins results of further samples. An excerpt; rates above refer to the full screens.

Compound	T cruzi repl	A1 inh	Calb FLC	B2AR ag	LANA-H2A inh	Ecoli rRNA inh	Ecoli rRNA inh OD600	Ecoli rRNA inh RFP	Beta cell apopt	ALR H2O2 inh
Nc1cc(=O)[nH]c(SCC(=O)Nc2cccc(Cl)c2)n1	-7	-0.6	2	0	-1.2	.	.	.	.	21
O=C(CCN1C(=O)/C(=C/c2ccccc2)SC1=S)NCCCN1CCOCC1	55*	-0.5	-5	-3	7.9	-1	12	4.6	-7	3
CC(=O)c1ccc(S(=O)(=O)N2CCCC(N(C)CCc3ccccn3)C2)cc1 (centres undefined)	3	.	-5	17	.	20	20	3.5	.	-24
COc1ccc(C)cc1-n1[nH]nnc1=S	0	0.5	13	-7	1.1	18	20	0.7	8	3
CCC1(C)Cc2c(sc3nnn(CC(=O)Nc4ccccc4C)c(=O)c23)CO1 (centres undefined)	30	-0.7	2	2	1.4	.	.	.	-4	.
Cc1cc(N2CCCCCC2)nc2ccc(F)cc12	17	-0.7	-6	4	-5.2	.	.	.	4	-5
Cn1ccsc1=NC(=O)c1ccc(CS(C)(=O)=O)cc1	-4	0.8	7	-2	7.1	9	10	-1.4	.	-12
Oc1ccccc1CNc1nc2ccccc2n1CCN1CCCCC1	-13	0.2	-14	-16	-2.8	-4	-16	1.9	-5	96*
COc1ccc(C)cc1S(=O)(=O)NCC(c1ccco1)N1CCc2ccccc2C1 (centres undefined)	19	0.2	5	0	-0.6	0	1	0.7	-8	-1
O=C(NCCNC(=O)c1ccco1)c1ccco1	-7	0.7	-2	-1	20	10	12	-0.5	-2	.
FC(F)(F)c1cccc(NC(=S)Nc2cccc(NC(=S)Nc3cccc(C(F)(F)F)c3)n2)c1	40	0.6	67	14	-4.1	-46*	-7.3*	-12*	8	13
O=C(CSCc1nc2ccccc2[nH]1)N1CCN(c2cccc(Cl)c2)CC1	-16	0.3	8	0	-4.5	.	.	.	-12	.
Cc1nn(-c2ccccc2)c(C)c1/C=N/NC(=O)c1ccc(F)cc1	1	-0.5	0	9	4.7	-13	-10	-1.8	0	41
Cc1c(OCC(=O)NC(Cc2ccc(Cl)cc2)C(=O)O)ccc2c(-c3ccccc3)cc(=O)oc12 (centres undefined)	-7	0.3	-4	-5	3.5	.	.	.	1	4
O=C(Nc1ccc(Cl)cc1)C1C2C=CC3(O2)C1C(=O)N(CCCN1CCCCC1)C3C(=O)NC1CCCCC1 (centres undefined)	18	0.3	-6	-1	0.0	2	-4	0.0	-1	0
CCCN(CC(=O)Nc1ccccc1OC)C(=O)CN1C(=O)NC2(CCCCC2)C1=O	.	-0.1	.	1	-4.4	3	2	-0.7	-7	-3
COc1ccc(Cl)cc1N1C(=NC(=O)C2CCCCC2)SC2CS(=O)(=O)CC21 (centres undefined)	9	-0.5	3	-3	7.5	3	2	-1.4	-4	1
CC(C)Oc1ccc(N2CC(C(=O)Nc3ccc4c(c3)OCO4)CC2=O)cc1 (centres undefined)	0	1.5	-11	2	0.1	5	10	0.5	6	11
O=C(c1cn(CC2CCCCC2)nn1)N1CCN(c2ccc(F)cc2)CC1	1	.	7	2	.	-9	-27	-3.0	.	21
COC(=O)CCCC1=CC2=CC(=O)C(C)(OC(=O)c3cccs3)C(=O)C2=CN1CC(C)C (centres undefined)	25	0.0	9	1	-0.9	20	3	5.6	2	-32
O=C1CC(N2CCSCC2)C(=O)N1c1ccc(Br)cc1 (centres undefined)	-24	0.5	0	-4	1.4	1	0	-3.5	2	-4
Cc1cc(CNC(=O)C2CCC(=O)N(CCc3cccc(F)c3)C2)nn1C (centres undefined)	-12	1.0	-5	-5	4.0	5	5	1.2	-7	-4
N#Cc1nc(-c2ccco2)oc1NCc1ccco1	-9	0.0	-5	-9	0.5	.	.	.	-3	?
Cc1ccc(S(=O)(=O)N2CCN(S(=O)(=O)N(C)C)CC2)cc1	-3	-1.3	-9	-1	-0.3	.	.	.	-7	-6
Cc1cccc(N2CCN(S(=O)(=O)c3cc4c(cc3Cl)NC(=O)CO4)CC2)c1C	17	0.2	-1	6	7.1	5	9	3.5	4	-3
C=CCn1cc(Cl)c(=O)n(CC=C)c1=O	4	1.1	1	5	1.2	.	.	.	-2	-1
Cc1ccc(S(=O)(=O)NCc2ccccc2)cc1C(=O)N(C)Cc1ccc(F)cc1	6	-0.3	-2	-5	-2.5	-1	2	-1.5	0	-3
Cn1cc(NC(=O)OCc2ccc(Cl)cc2)c(C(F)(F)F)n1	14	-0.4	2	5	-6.3	-27	-24	-4.1	.	-2
CC(C)c1ccccc1NC(=O)CNC(C)c1ccc(F)cc1 (centres undefined)	15	-0.3	-10	-7	-5.5	-18	-22	-1.6	.	-21
N=c1c(C(=O)NCc2ccccc2)cc2c(=O)n3ccccc3nc2n1CCCN1CCOCC1	.	0.1	.	10	-32	.	.	.	5	2
O=C1CCCc2c1[nH]c1c(Br)cccc21	14	-0.6	6	-4	-4.1	.	.	.	-2	.
C[C@H](CO)N1C[C@H](C)[C@@H](CN(C)S(=O)(=O)c2ccc(F)cc2)Oc2ccc(NS(=O)(=O)c3ccc(F)cc3)cc2C1=O	.	2.2	.	2	1.6	0&-10	-8&-12	1.2&5.0	5	-5
CCOC(=O)C(CCCCC(NC(C)=O)(C(=O)OCC)C(=O)OCC)(NC(C)=O)C(=O)OCC	-4	-0.3	-6	-1	-4.9	15	7	-0.8	0	-3
Cn1c(CCN2CCCCC2)nc2cc(NC(=O)NC3CCCCC3)ccc21	27	-0.6	10	3	11	.	.	.	-7	.
COc1ccc(OC)c(S(=O)(=O)Nc2ccc(OCC(=O)O)cc2)c1	-1	0.6	-5	-6	0.6	2	6	-0.7	-5	-3
CC(C)(C)NC(=O)Cn1nnc(-c2ccccc2NC(=O)c2ccco2)n1	-2	-0.3	-10	-15	0.4	.	.	.	-4	3
CC(C)(C)C(=O)Nc1ccc(NC(=O)C(C)(C)C)cc1	-11	-0.7	11	-4	1.8	5	5	-0.3	-8	-4
Cc1ccc(-n2ncc3c2CCCC3NC(=O)c2ccoc2)cc1C (centres undefined)	3	1.5	2	-3	1.5	-19	-27	-6.8	-6	1
O=C(NN1CCOCC1)c1ccc(Cl)cc1Cl	-11	0.3	7	-2	0.7	7	-9	-1.7	0	1
Cc1nc(COc2cccc(Cl)c2)sc1C(=O)/C=C/N(C)C	2	-1.1	-9	-7	2.0	0	1	2.5	6	1
Cn1cc(/C=N/NC(N)=S)c2ccccc21	-17	-0.1	-4	2	-0.4	-5	-3	-2.5	-11	.
Cc1ccc(SCCC(=O)OCC(=O)NCC2CCCCC2)cc1	12	-0.1	7	15	-8.5	15	6	5.1	-1	14
CC(C)Cn1cnc2c(c(-c3ccccc3)c(-c3ccccc3)n2Cc2ccco2)c1=N	60*	-1.2	17	29	-2.1	.	.	.	56	-10
COc1cc2c(cc1OC)/C(=C/C(=O)c1ccc(F)cc1)NCC2	-12	-1.0	2	3	0.1	-1	4	3.5	-1	73
CCn1c(SCc2ccccc2Cl)nc2ccccc21	14	-2.5	19	-11	3.3	.	.	.	-2	7
CSCCC(NC(=O)c1ccccc1)C(=O)N1CCN(C(C)=O)CC1 (centres undefined)	.	-0.6	.	-1	2.1	9	19	-2.1	3	0
C=CCNS(=O)(=O)c1ccc(OCC(=O)OCC)cc1	-8	-0.6	-24	10	2.9	17	10	-0.2	-4	0
Cc1ccc(C(=O)NC(C)c2ccc(S(N)(=O)=O)cc2)s1 (centres undefined)	-9	-0.5	0	11	2.4	4	15	2.1	3	-7
N#Cc1c(/N=C/c2cccs2)sc2c1CCC2	-15	-7.0	12	-12	-1.9	.	.	.	-1	.
C#CCNc1ccc([N+](=O)[O-])cc1	-4	0.7	-14	-10	0.7	19	13	-3.2	0	70
COc1ccccc1N(C(C)=O)c1nc(C)cc(C)c1C#N	-13	0.2	-1	3	3.1	.	.	.	2	-2
CCCc1cc(=O)[nH]c(SCC(=O)N2CCN(S(=O)(=O)c3ccc(Cl)cc3)CC2)n1	10	-0.6	-9	4	2.9	.	.	.	1	.
Cc1nnsc1Sc1cccc(C(F)(F)F)c1	-1	0.0	2	-6	3.5	.	.	.	-6	-2
CN1CC(c2ccc(C#N)cc2)C2(COc3ccccc3C2=O)C12C(=O)Nc1ccccc12 (centres undefined)	-7	0.5	-15	0	3.1	.	.	.	1	-2
Cc1ccccc1OCc1n[nH]c(=S)n1Cc1ccccc1	-7	-0.3	-8	-278	1.0	.	.	.	1	0
CCN(Cc1cc2cc(C)ccc2[nH]c1=O)S(=O)(=O)c1ccccc1	12	0.2	14	-5	-0.4	.	.	.	4	-4
COc1cc(NC(=O)COC(=O)CNS(=O)(=O)c2ccc(F)c(F)c2F)cc(OC)c1	-13	0.8	-20	-1	1.1	11	5	7.7	-5	-11
Cn1c(-c2ccc[nH]c2=O)nc2cc(Cl)ccc21	0	0.6	24	0	-0.4	.	.	.	-1	-9
O=C(NCCCNC(=O)c1cnccn1)c1ccc(Cl)c(Cl)c1	-3	0.1	-1	-9	1.4	-1	2	-0.5	0	-5
O=C1NC(c2ccc3c(c2)OCO3)Nc2ccccc21 (centres undefined)	2	-7.6	3	-9	-1.6	.	.	.	11	-2
O=C(CN1CCN(c2ncccn2)CC1)N1CCc2ccccc21	-9	-1.8	20	2	0.0	10	5	-0.6	-6	-15
